High-throughput results (PubChem)
VACV mCherry inh = vaccinia inhibition (mCherry reporter); Vaccinia virus mCherry reporter infection, fluorescence; about a quarter of the inactives have no number; AID 720579; 310,000 tested, 0.63% active; Potency, µM (highest dose often 36.5 µM), for inactives: top-dose activity change, negative = inhibition, hits mostly inhibitors; active = well fitted inhibition curve with a large enough effect; inconclusive = small, poorly fitted or top-dose-only effect; inactive = no such curve, though single readings can be large or run the other way; tested in A549 cells; note: nearly all actives have a fitted effect of over 35% in size; inactives centre near -10
VACV Venus inh = inhibitors of vaccinia virus (Venus reporter) | Vaccinia virus Venus reporter expression, fluorescence | Potency, µM (titrated, usually from 36.5 µM), for inactives: at the top dose activity change, negative = inhibition, usual class: inhibitors | 330,000 tested, 0.46% active | AID 720580; active means well fitted inhibition curve with a large enough effect; inconclusive means small, poorly fitted or top-dose-only effect; inactive means no such curve, though single readings can be large or run the other way; tested in A549 cells; note: nearly all actives have a fitted effect of over 30% in size; inactives centre near -10
Starred values were filed as active, the others as inactive; i = inactive; ? = inconclusive; . = no result given; & = joins results of further samples; [ ] = remark or other dose. % is set by controls: 0 for no effect and ±100 for the full control effect; potency is the fitted concentration of half-maximal effect.

SMILES | VACV mCherry inh | VACV Venus inh
CN1CCN(CCCNC(=O)c2nnc(Cc3c(F)cccc3Cl)o2)CC1 | i | 7%
O=C(NCc1ccco1)C1(S(=O)(=O)c2ccccc2)CC=CC1 | i | -10%
COC1=CC(=O)C=C(OC)C1(O)CC(C)=O | 3% | 11%
COC(=O)/C=C1/C(=O)N/C(=N\c2nc(C)cc(C)n2)N1c1ccc(OC)cc1 | i | 12%
Cc1ccc2nc(-c3ccc(F)cc3)nc(SCC(=O)NCC3CCCO3)c2c1 (configuration not stated) | -14% | -8%
CN(C)N=Nc1ccc(S(=O)(=O)NC(Cc2ccccc2)C(=O)O)cc1 (configuration not stated) | -5% | -13%
Cc1sc(N)nc1C12CC3CC(CC(C3)C1)C2 | -2% | -19%
CCOC(=O)C1=C(C)NC2=C(C(=O)c3ccccc32)C1c1ccc(O)cc1 (configuration not stated) | ? | -19%
C#CCOCCOCCOCCNc1nc(N2CCN(C(=O)[C@H](CCCCN)n3cc(CCCC)nn3)CC2)nc(N2CCN(C(=O)[C@H](Cc3ccc(O)cc3)n3cc(CCO)nn3)CC2)n1 | i | -2%
COC(=O)C(Cc1c[nH]c2ccccc12)NC(=O)c1cc(-c2ccc(OC)c(OC)c2)oc1C (configuration not stated) | -25% | -17%
Cc1ccc(CSc2nnc([C@@H](N)C(C)C)o2)cc1 | -4% | 18%
c1ccc(CSc2nnc3c(n2)OC(c2ccco2)Nc2ccccc2-3)cc1 (configuration not stated) | -17% | -9%
O=C(NCCc1ccccc1)c1ccc2c(c1)N(Cc1ccc(Cl)cc1)C(=O)c1ccccc1S2(=O)=O | -15% | -14%
Oc1ccccc1C=NCCN1CCN(CCN=Cc2ccccc2O)C1c1ccccc1O (configuration not stated) | 0% | 1%
COc1ccc(CCn2c(=O)c3ccccc3n(CC(=O)Nc3cccc(C)c3)c2=O)cc1OC | -14% | -4%
CCCNC(=O)C1(C)CCCN(C(=O)c2ccccc2OC(F)(F)F)C1 (configuration not stated) | 9% | 4%
Cc1ccc2ccccc2c1C(O)c1ncc(-c2ccc(Cl)cc2)[nH]1 (configuration not stated) | -26% | -25%
Cc1noc(C)c1COc1ccccc1C(=O)NC(C)CCc1ccccc1 (configuration not stated) | -8% | -13%
COc1ccc(NC(=O)COC(=O)Cc2ccc(Br)cc2)cc1 | -12% | -14%
C(=N\n1cnnc1)/c1cccnc1 | -13% | -6%
C(=Nc1cccnc1)c1ccc2ccccc2n1 | 23% | -4%
COC(=O)c1cc(OC)c(OCc2cc(C(=O)OC)oc2C)c(OC)c1 | . | -11%
COC(=O)C1=CN(c2ccc3c(c2)OCO3)C(N)=C(C#N)C1c1cccc(F)c1 (configuration not stated) | ? | -23%
CCOC(=O)c1nn(-c2cccc(C)c2)c2nnc(Cc3ccc(C)cc3)c(=O)n12 | i | -1%
CCc1cc(-c2n[nH]c(C)c2-c2nc(C)cs2)c(O)cc1OC | -30% | ?
COC(=O)c1ccc(NC(=O)CSc2nc(N)c(NC(=O)c3ccc(Br)o3)c(=O)[nH]2)cc1 | -11% | -15%
CCN(CC)C(=O)c1sc2c(c1C)c(=O)n(-c1ccc(Cl)c(Cl)c1)c(=O)n2Cc1cc(=O)n2ccccc2n1 | -17% | -16%
COc1ccc(N(CC(=O)NCc2cccnc2)S(=O)(=O)c2ccccc2)c(OC)c1 | 3% | -9%
S=c1[nH]nc(C2CCCCC2)n1/N=C/c1ccccc1Cl | -12% | -12%
Cc1ccc(Sc2nc3c(c(=O)[nH]c(=O)n3C)n2CCc2ccccc2)cc1 | i | -21%
COc1ccc(-c2nc(CSc3nnc(C)n4c3cc3oc(C)cc34)c(C)o2)cc1OC | -19% | ?
Cc1ccccc1OC1=NS(=O)(=O)c2ccccc21 | -23% | -7%
CCC(C(=O)N1CCN(Cc2ccc3c(c2)OCO3)CC1)n1c(=O)[nH]c2ccccc2c1=O (configuration not stated) | -14% | -16%
CN(CC(=O)Nc1ccccc1N1CCOCC1)S(=O)(=O)c1ccc(Cl)cc1 | -11% | -6%
Cc1ccc(N2C(=O)CSC23C(=O)N(CC(=O)NC2CCCCC2)c2ccccc23)cc1C (configuration not stated) | 4% | 2%
COC(=O)c1ccc(COC(=O)c2cccnc2Cl)cc1 | -11% | -2%
Cc1cccc(NC(=O)c2ccccc2SCc2ccc(F)cc2)n1 | -14% | -7%
CCCCC(C)n1[nH]c(=O)cc1N (configuration not stated) | . | -7%
O=S(=O)(c1ccccc1)N1CCC2(CC1)OCCO2 | i | -7%
COc1ccc(NC(=S)N(CCCN2CCCC2)Cc2ccco2)cc1 | -7% | -4%
Cc1cc(NC(=O)c2cccc([N+](=O)[O-])c2)n(-c2ccccc2)n1 | -9% | 1%
COc1ccc(OC)c(NC(=O)CSc2nnc(CNC(=O)c3ccccc3F)o2)c1 | -4% | -13%
O=C(Cc1cccs1)NCc1ccc(Cl)cc1Cl | -7% | -7%
COc1cccc(-n2c(=O)c3c(C)c(C(=O)N(C)C)sc3n(CC(=O)NCCc3ccc(OC)c(OC)c3)c2=O)c1 | -1%&8% | -9%&-2%
CC(Sc1nncs1)C(=O)NCc1ccc2c(c1)OCO2 (configuration not stated) | -11% | -4%
COCCNC(=O)CN1C(=O)COc2ccc(S(=O)(=O)N3CC(C)CC(C)C3)cc21 (configuration not stated) | -29% | -16%
CSCC[C@H](NC(=O)Nc1ccc(OC(F)(F)F)cc1)C(=O)O | 0% | -2%
Cc1ccccc1NC(=O)C(NC1CCCCC1)C(C)C (configuration not stated) | -29% | 6%
CCOc1ccc(NC(=O)CSc2nc(=O)[nH]c3c2CCC3)cc1 | -3%[7.34 µM] | -7%[7.34 µM]
COc1cccc(COC(=O)C2CCN(C(=O)c3ccccc3C)CC2)c1OC | -29% | -6%

Next records:
SMILES | VACV mCherry inh | VACV Venus inh
CCCN1CCN(C(=O)c2oc3ccccc3c2NC(=O)C2CC2)CC1 | -17% | -18%
Cc1ccccc1NC(=O)Cc1nc(COC(=O)c2cccc(C)c2O)cs1 | -7% | -6%
CC1CCCCN1Cc1ccc(N(C)C)cc1 (configuration not stated) | i | -12%
Cc1cccc(OCCCC(=O)Nc2ccccc2C(F)(F)F)c1 | -11% | -8%
COc1ccc(CCN(Cc2nc3ccccc3c(=O)[nH]2)C(=O)c2ccco2)cc1OC | -19% | -22%
CN(CC(=O)Nc1ccccc1Cl)C(=O)c1cccc(-n2cccc2)c1 | i | -7%
COc1ccc(OCC(O)CN2C(=O)c3ccccc3C2=O)cc1 (configuration not stated) | -27% | -13%
O=C(c1ccc(Cl)cc1)N1CCC(c2nc(-c3cccs3)no2)CC1 | -16% | -17%
CCN(CCCNC(=O)c1cc2c(=O)n(CC)c3ccccc3c2s1)Cc1ccccc1 | ? | -27%
CN1CCN(C2=CC3=CC(=C(C#N)C#N)CCC3CC2)CC1 (configuration not stated) | -2% | .
CCN(c1ccc(OC)cc1)S(=O)(=O)N1CCCC(C(=O)NCc2ccccc2Br)C1 (configuration not stated) | i | -10%
O=C(CSc1nnc(-c2ccccc2Cl)o1)N1CCCCC1 | -8% | -10%
Cc1ccc(O)c(NC(=O)COCc2cc(-c3ccco3)on2)c1 | -8% | -28%
COC(=O)C1=C(C)N(c2ccc(Cl)cc2)/C(=C/c2ccc(O)cc2)C1=O | -6% | -7%
O=c1cc(-c2ccccc2)c2ccc3c(c2o1)CN(Cc1ccccc1)CO3 | -9% | -9%
Cc1ccc(S(=O)(=O)N2C[C@H]3[C@H]4C(=O)N(c5ccccc5)C(=O)[C@H]4C[C@H](OC(=O)NCc4ccco4)[C@@]3(O)C2)cc1 | -13% | -10%
CCCc1c(OCCCCc2nn[nH]n2)ccc(C(C)=O)c1O | -3%[3.33 µM] | -9%
Cc1nc(N)sc1C(=O)N/N=C/c1cccnc1 | -8% | -7%
CC(=O)N/C(=C\c1ccccc1)C(=O)OCC(=O)c1c(N)n(CC(C)C)c(=O)n(C)c1=O | -15% | -15%
COc1ccc(CCNC(=O)CCSCc2ccccc2Cl)cc1OC | -16% | -10%
CCOc1ccc(-c2nonc2NC(=O)c2oc3cc(C)c(C)cc3c2C)cc1OCC | -15% | -11%
Cc1cc(NC(=O)CCS(=O)(=O)c2cc3c4c(c2)CCN4C(=O)CC3)ccc1Br | -6% | 0%
O=C(Cc1ccccc1)NCC(=O)OCC(=O)c1ccccc1Cl | -5% | -2%
Cc1noc(N)c1C(=O)Nc1ccc(F)c(Cl)c1 | i | -18%
O=C(CSc1oc(-c2ccco2)nc1S(=O)(=O)c1ccccc1)c1ccc(Cl)cc1 | -9% | -15%

Grouped by structure: the compounds so far with a thiophene ring, fused or not
SMILES | VACV mCherry inh | VACV Venus inh
CCN(CC)C(=O)c1sc2c(c1C)c(=O)n(-c1ccc(Cl)c(Cl)c1)c(=O)n2Cc1cc(=O)n2ccccc2n1 | -17% | -16%
O=C(Cc1cccs1)NCc1ccc(Cl)cc1Cl | -7% | -7%
COc1cccc(-n2c(=O)c3c(C)c(C(=O)N(C)C)sc3n(CC(=O)NCCc3ccc(OC)c(OC)c3)c2=O)c1 | -1%&8% | -9%&-2%
O=C(c1ccc(Cl)cc1)N1CCC(c2nc(-c3cccs3)no2)CC1 | -16% | -17%
CCN(CCCNC(=O)c1cc2c(=O)n(CC)c3ccccc3c2s1)Cc1ccccc1 | ? | -27%

More results.
The line under a structure holds: VACV mCherry inh, VACV Venus inh
- CCOc1ccc(/C=C(\C#N)C(=O)NC2CC2)c(OCC)c1
    i, -17%
- O=S(=O)(Nc1ccc(Br)cn1)c1ccc2ccccc2c1
    -19%, -23%
- Cc1cc(C(=O)NNC(=O)Cc2ccc(Cl)c(Cl)c2)c(C)o1
    -20%, -17%
- CCC(C)Nc1nc(-c2ccc3c(c2)NC(=O)CO3)cs1 (configuration not stated)
    ., -27%
- O=C(NC1CCCC1)C(c1ccncc1)N(C(=O)Cn1nnc(-c2ccccc2F)n1)c1cccc(F)c1 (configuration not stated)
    -30%, -9%
- N#CC1=C(S)N(c2ccc(F)cc2)C(c2cccs2)NC1=O (configuration not stated)
    -15%, -7%
- CC12CCC(=O)N1C(C(=O)N1CCN(S(=O)(=O)c3cccc(C(F)(F)F)c3)CC1)CS2 (configuration not stated)
    -14%, -6%
- CC(C)N(Cc1ccccc1)CC(O)COc1ccc(S(=O)(=O)N2CCOCC2)cc1Cl (configuration not stated)
    -15%, -17%
- CC[C@@H](C)[C@H](NC(=O)Cc1c(C)c2c(cc(C)c3c(C)c(C)oc32)oc1=O)C(=O)O
    i, -12%
- O=C(COC(=O)C1CC2C=CC1C2)Nc1c(Br)cc([N+](=O)[O-])cc1Br (configuration not stated)
    -9%, -22%

Two records picked at random from those above, as already listed:
The line under a structure holds: VACV mCherry inh, VACV Venus inh
- O=S(=O)(Nc1ccc(Br)cn1)c1ccc2ccccc2c1
    -19%, -23%
- COc1ccc(CCNC(=O)CCSCc2ccccc2Cl)cc1OC
    -16%, -10%

In the list so far, 11 have an NH in an aromatic ring:
The line under a structure holds: VACV mCherry inh, VACV Venus inh
- COC(=O)C(Cc1c[nH]c2ccccc12)NC(=O)c1cc(-c2ccc(OC)c(OC)c2)oc1C (configuration not stated)
    -25%, -17%
- Cc1ccc2ccccc2c1C(O)c1ncc(-c2ccc(Cl)cc2)[nH]1 (configuration not stated)
    -26%, -25%
- CCc1cc(-c2n[nH]c(C)c2-c2nc(C)cs2)c(O)cc1OC
    -30%, ?
- COC(=O)c1ccc(NC(=O)CSc2nc(N)c(NC(=O)c3ccc(Br)o3)c(=O)[nH]2)cc1
    -11%, -15%
- S=c1[nH]nc(C2CCCCC2)n1/N=C/c1ccccc1Cl
    -12%, -12%
- Cc1ccc(Sc2nc3c(c(=O)[nH]c(=O)n3C)n2CCc2ccccc2)cc1
    i, -21%
- CCC(C(=O)N1CCN(Cc2ccc3c(c2)OCO3)CC1)n1c(=O)[nH]c2ccccc2c1=O (configuration not stated)
    -14%, -16%
- CCCCC(C)n1[nH]c(=O)cc1N (configuration not stated)
    ., -7%
- CCOc1ccc(NC(=O)CSc2nc(=O)[nH]c3c2CCC3)cc1
    -3%[7.34 µM], -7%[7.34 µM]
- COc1ccc(CCN(Cc2nc3ccccc3c(=O)[nH]2)C(=O)c2ccco2)cc1OC
    -19%, -22%
- CCCc1c(OCCCCc2nn[nH]n2)ccc(C(C)=O)c1O
    -3%[3.33 µM], -9%
